# Vaccinia Venus – qHTS for Stage-Specific Inhibitors of Vaccinia Orthopoxvirus: Venus Reporter Primary qHTS. hit rate 0.46% among 330,000. Vaccinia virus Venus reporter expression, fluorescence. Potency, µM (series often up to 36.5 µM), for inactives: at the top dose activity change, negative = inhibition, most hits filed as inhibitors; active means well fitted inhibition curve with a large enough effect; inconclusive means small, poorly fitted or top-dose-only effect; inactive means no such curve, though single readings can be large or run the other way; tested in A549 cells; further: nearly all actives have a fitted effect of over 30% in size; inactives centre near -10
# VACV mCherry inh – qHTS for Stage-Specific Inhibitors of Vaccinia Orthopoxvirus: mCherry Reporter Primary qHTS; Vaccinia virus mCherry reporter infection, fluorescence; about a quarter of the inactives have no number; Potency, µM (top dose mostly 36.5 µM), inactives show top-dose activity change, negative = inhibition, usual class: inhibitors; hit rate 0.63% among 310,000; AID 720579, 2013; active = well fitted inhibition curve with a large enough effect; inconclusive = small, poorly fitted or top-dose-only effect; inactive = no such curve, though single readings can be large or run the other way; tested in A549 cells; further: nearly all actives have a fitted effect of over 35% in size; inactives centre near -10
# Active calls of the source: *; i = inactive; ? = inconclusive; . = not tested or not shown; & = joins results of further samples. On the % scale 0 is the no-effect control and ±100 the full control effect; potency means the concentration at half of the fitted maximal effect.
SMILES	Vaccinia Venus	VACV mCherry inh
COc1ccc(C2N(c3ccc(Cl)cc3)N=C(C(C)=O)N(C)N2C(C)=O)cc1 (centres undefined)	-3.5%	-20.4%
CCOC(=O)c1c(C)[nH]c(C(=O)/C(C#N)=C/c2ccc(OC(F)F)c(OC)c2)c1C	-2.5%	i
Cc1cc(C(=O)N2CCN(c3ncccn3)CC2)c2cc(F)ccc2n1	-9.6%	-15.8%
CCCCNC(=O)C(=O)NC(C)CCc1ccccc1 (centres undefined)	-12.7%	-5.4%
CCCCC(OC(=O)c1ccco1)C(=O)NCc1ccc(C)cc1 (centres undefined)	-6.3%	?
N#Cc1c(-c2ccccc2)nc(SCC(=O)Nc2nnc(C(F)(F)F)s2)[nH]c1=O	-4.2%	i
CC1(C)c2[nH]c3ccccc3c2C[C@H]2C(=O)N(N)CC(=O)N21	-15.5%	-4.2%
C=CCSc1nc2ccsc2c(=O)n1-c1cccnc1	1.3%	-11.7%
CN(CCc1ccccc1)C(=O)c1cccc(NC(=O)Cc2ccc([N+](=O)[O-])cc2)c1	-25.5%	-27.6%
CC1=C(C(=O)NC(C)C)C2(CCC(C)CC2)OC1=O (centres undefined)	4.5%	-0.1%

# Look-ups from above.
# Under Vaccinia Venus, `CCCCC(OC(=O)c1ccco1)C(=O)NCc1ccc(C)cc1` (centres undefined) has the entry -6.3%
# Under VACV mCherry inh, `CCCCNC(=O)C(=O)NC(C)CCc1ccccc1` (centres undefined) has the entry -5.4%

# Next section
SMILES	Vaccinia Venus	VACV mCherry inh
C[C@H](CO)N1C[C@H](C)[C@H](CN(C)C(=O)Nc2cccc(C(F)(F)F)c2)OCc2cnnn2CCCC1=O	-17.7%	-11.5%
CC1(c2cccc([N+](=O)[O-])c2)CC(C)(C)N(C(=O)c2ccccc2)c2ccccc21 (centres undefined)	-26.7%	-16.6%
CCN(CC)S(=O)(=O)c1ccc(N/N=C(\C)c2ccncc2)nc1	7.6%	-9.4%
COc1cc(/C=C/C(=O)O)cc(S(=O)(=O)NCCCC(=O)O)c1OC	-6.0%	i
COc1cccc(CNC(=O)CCC2CCCN(c3cc(C)nc(N4CCCC4)n3)C2)c1 (centres undefined)	-13.8%	-20.0%
Cc1cc(C)c(C(=O)CSc2nnc(C)c(=O)[nH]2)cc1C	-17.1%	-12.4%
CC(C)(C)c1ccc(CC(=O)N2CCC2(C)C(=O)Nc2cccc3cccnc23)cc1 (centres undefined)	-13.3%	i
COc1ccc(/C=N/NC(=O)c2ccn[nH]2)cc1COc1ccc(Cl)cc1Cl	-21.4%	-29.0%
Cc1cccc(NC(=O)C2CCCN(S(=O)(=O)c3c(C)nn(C)c3C)C2)c1 (centres undefined)	3.2%	i
Cc1ncnc2nc[nH]c12	?	?
CC(=O)N1C[C@H]2CON(C)[C@H]2C[C@H]1c1ccccc1Br	8.9%	-9.1%
CCN(CC)C(=O)C1=C(C)N(CCC2=CCCCC2)C(=O)C(CC(=O)NCc2cccc3ccccc23)C1 (centres undefined)	-29.0%	-19.8%
Cc1ccc(C)c(N=Nc2nc3ccccc3n2C)c1	-24.5%	-12.7%
CCCOC(=O)CSc1nnc(-c2ccc(Cl)cc2Cl)o1	-11.0%	.
CCN(CC)CCN(C(=O)c1ccc(Br)s1)c1nc2cc3c(cc2s1)OCCO3	-21.1%	-5.5%
CCN(CC)c1nc(NNC(=O)c2ccccc2)nc(N(CC)CC)n1	-7.0%	-2.3%
CN(CC(=O)NCCc1ccccc1)S(=O)(=O)c1cnc[nH]1	-17.9%	-15.1%
CCOC(=O)CNC(=O)c1cc2c(=O)oc3ccccc3c2s1	9.7%	-9.5%
COc1ccc(OC)c(N(CC(=O)Nc2cccc3ccccc23)S(C)(=O)=O)c1	-14.1%	i
C=CCOc1c(Cl)cc(C(=S)N2CCCC2)cc1OCC	-25.6%	?
O=C(Nc1ccc(Oc2cccc(C(F)(F)F)c2)nc1)c1cccs1	8.6%	1.5%
O=C(Nc1cccc(Cl)c1)Nc1cccc(Cl)c1	?	?
COc1ccccc1CNC(=O)Cn1c(=O)nc(-c2ccccc2F)c2cc(Cl)ccc21	-23.2%	-29.2%
O=C(Nc1ccc2nc3n(c(=O)c2c1)CCCC3)c1cc([N+](=O)[O-])ccc1F	-24.4%	-20.0%
C=CCc1c(C)nc(-c2ccccc2)nc1N/N=C(\C)c1ccc(N)cc1	-12.8%	-7.7%
Cc1ccc(OCC(=O)N2CCN(CCc3ccncc3)CC2)cc1	-7.7%	-4.4%
O=c1c2c(nc3cc(-c4ccc(F)cc4)[nH]n13)CCC2	-9.6%	-1.8%
Cc1nn(C)c2c1c(C(F)(F)F)cc(=O)n2CC(=O)NCc1ccccc1Cl	3.8%	-7.6%
COc1ccc(NC(=O)C2CCCN(S(=O)(=O)c3c(C)[nH]c(=O)[nH]c3=O)C2)cc1OC (centres undefined)	-4.1%&-6.5%	-16.2%&9.6%
Cn1c(CO)cnc1SCC(=O)c1ccc(Cl)cc1	-8.1%	-14.5%
Cc1nn(Cc2ccc(Cl)c(Cl)c2)c(C)c1NC(=O)c1sc2ccccc2c1Cl	-36.2%	?
O=c1[nH]c(=S)[nH]c(O)c1N=Nc1cc2c(cc1[N+](=O)[O-])OCO2	-1.4%	4.0%
CCCNC(=O)C1CCC(Cn2c(=O)c3sccc3n(CC(=O)NCc3cccc(OC)c3OC)c2=O)CC1 (centres undefined)	-10.1%	-4.1%
CCN1CCN(Cc2ccc(NC(=O)CC3Oc4ccc(C)cc4NC3=O)cc2)CC1 (centres undefined)	-2.8%	-0.8%
Cc1ccc(-c2csc(NC(=O)CN3CCOCC3)n2)cc1	-18.5%	-5.5%
CC(C)NC(=O)CCn1nc(-c2ccc(Cl)cc2)c2ccccc2c1=O	-1.6%	-23.9%
NC(=S)NN=C1Cc2cccc3cccc1c23	?	?
CCOC(=O)c1cc2cc(OC)ccc2nc1C	-22.6%	-6.2%
NCCCCCc1cn(CC(=O)NCCCCCCCCCCC(=O)N2CCNCC2)nn1	-17.3%	-10.6%
COCCNc1nc(NCCOC)c2sc(-c3ccccc3)cc2n1	?	?
C=C(C)CN=C1NN=C(c2cc(C)n(-c3ccc(C)cc3)c2C)CS1	-9.9%	-13.5%
CCCOc1ccc(C(=O)O)cc1	-18.1%	-3.2%
CCOc1ccc(NC(=O)Cn2cc(C(=O)c3ccc(CC)cc3)c(=O)c3cc(C)ccc32)cc1	-25.2%	-6.6%
COC(=O)C1=CC(C(=O)c2cccs2)=NN(c2ccc(OC)cc2)C1C(=O)OC (centres undefined)	-5.9%	i
O=c1[nH]c(-c2ccccn2)nc(C(F)(F)F)c1Br	-16.6%	11.2µM*
Cc1cc(NC(=O)CSc2nc3c(C)c(C)ccc3cc2C)no1	-2.0%	-10.8%
COc1ccc(-c2nc3ccc(C(=O)NCc4ccccc4)cc3nc2-c2ccc(OC)cc2)cc1	-21.4%	-29.3%
O=C(CNC(=O)c1ccc(Cl)cc1)c1ccc(Cl)cc1	-14.6%	i
C[C@H]1CN(S(=O)(=O)C(C)(C)C)[C@H](CCO)/C1=C\c1ccccc1	-9.9%	i
CCc1ccc(Sc2cc(C(=O)NCc3ccccc3OC)c3ccccc3n2)cc1	1.8%	-1.9%

# (more compounds)
SMILES	Vaccinia Venus	VACV mCherry inh
Cc1nc2c(OCCN3C(=O)c4ccccc4C3=O)cccn2c1N(C)C(=O)CCC1CCCC1	-2.2%	0.5%
CCc1ccc(OCC(=O)N(Cc2cccs2)C2CCS(=O)(=O)C2)cc1 (centres undefined)	-12.5%	-2.8%
COc1ccc(O)c(CN2CCC3(CC2)c2ccccc2[C@@H](NC(=O)c2cccc(F)c2)[C@@H]3OC)c1	-7.0%	-17.8%
CN(CC(=O)Nc1ccc(Cl)cc1)C(=O)CN1C(=O)C2CCCCC2C1=O (centres undefined)	-16.8%	i
Cn1c(CO)cnc1SCc1ccccc1	?	.
O=C(N/N=C\c1ccc(OCC(=O)N2CCCC2)cc1)C(=O)Nc1ccccc1F	-12.6%	-4.2%
Cc1cccc(CSC(Nc2ccc(F)cc2)=C(C#N)C#N)c1	?	?
Cc1ccc(NC(=O)CN2C(=O)C3(SCC(=O)N3c3cccc(Cl)c3)c3ccccc32)cc1C (centres undefined)	-7.1%	?
CN(C)c1ccc(/C=C/c2cccc3cc4ccccc4nc23)cc1	15.8µM*	11.2µM*
CCCNC(=O)COc1ncnc2sc(C)c(C)c12	-20.0%	.
COc1ccc(CN2CCCC(C(=O)c3ccc(Cl)cc3)C2)cc1Cn1cccn1 (centres undefined)	-21.4%	i
NC(=O)C1CCN(C(=S)c2cccs2)CC1	-5.8%	-12.1%
Cc1csc(NC(C)c2nc3cc(C(F)(F)F)ccc3n2CCCO)n1 (centres undefined)	-15.4%	-2.5%
CC(C)N1CCCC(C)(C(=O)Nc2cccc(Oc3ccccc3)c2)C1 (centres undefined)	-5.9%	-13.8%
CCOc1ccc(S(=O)(=O)NCCC(=O)NC2=NCCS2)cc1	-20.8%	.
CC(C)C(=O)Nc1ccc(NC(=O)c2ccccc2Cl)nc1	-1.9%	-12.9%
CCN(CC)CCOC(=O)c1ccc(Cl)cc1	0.5%	i
O=C(CSC(=S)N1CCSCC1)c1ccc(Cl)cc1	-12.9%	-8.5%
c1cncc(-c2nc3c(ccc4ccccc43)[nH]2)c1	-8.9%	-11.9%
CCOC(=O)Cc1nnc(NC(=O)C(CC)Sc2nnc3c4ccccc4n(C)c3n2)s1 (centres undefined)	-12.9%	-2.2%
CC(C)(C)c1ccc(/C=N/Nc2ccc(C(=O)O)cc2)cc1	?	?
O=C(CCN1C(=O)COc2ccccc21)N1CCCCC1	0.3%	-14.6%
COc1cc([N+](=O)[O-])ccc1NC(=O)CC1SC(=Nc2ccc(F)cc2)N(CCC2=CCCCC2)C1=O (centres undefined)	0.5%	-9.5%
CCOc1ccc(S(=O)(=O)N(CC(=O)NN=C2CCN(C)CC2)c2ccc(C)cc2)cc1	-23.2%	-2.6%
CC1(C)CC(=O)C(C(=S)Nc2ccccc2)=C(NC2CC(C)(C)NC(C)(C)C2)C1	-10.1%	i
Cc1[nH]nc(Nc2ccc(C(C)C)cc2)c1[N+](=O)[O-]	-15.1%	-1.7%
O=C(COc1ccc(S(=O)(=O)N2CCOCC2)cc1)NC1CC1	8.1%	1.8%
COc1ccccc1-c1oc2ccccc2c1C#CCCO	-20.8%	i
O=C(Nc1nc2n(n1)C(c1ccc(F)cc1)C=C(c1ccc(Cl)cc1)N2)c1ccco1 (centres undefined)	-14.9%	-8.1%
O=P(CCl)(Nc1ccccc1)C(Cl)(Cl)Cl (centres undefined)	1.3%	-9.0%
CC(=O)c1ccc(NC(=O)Cn2cnc(S(=O)(=O)N3CCOCC3)c2)cc1	-20.5%	-19.8%
CN1CCN(Cc2cc(Cl)c3cccnc3c2OC(=O)c2cccs2)CC1	?	11.2µM*
CC1CCCC(NC(=O)CSc2nnc(N)s2)C1C (centres undefined)	-11.8%	-9.4%
O=C1CCC(=O)N1OCCOc1ccccc1	-13.0%	-11.0%
COc1ccc(CN2C[C@H](C)[C@@H](CC(=O)NCc3ccccc3)C2=O)cc1	-2.1%&-12.6%	i
O=C(Nc1ccc(F)cc1)N(Cc1nnc2n1CCCCC2)c1ccccc1	-5.1%	.
COc1ccc(C2c3cc4c(cc3OC(NNC(N)=O)C2C)OCO4)cc1 (centres undefined)	?	-11.4%
OC[C@@H](O)C(O)[C@H](O)CO	-11.6%	-17.2%
Cc1nc(CN2CCN(S(=O)(=O)c3c(Cl)cc(Br)cc3Cl)CC2)cs1	?	-20.1%
CCOc1ccc(NC(=O)c2ccc(CC)s2)c([N+](=O)[O-])c1	-0.2%	-12.1%
Cn1c(=O)c2c(nc(Cc3ccc(N)cc3)n2C)n(C)c1=O	-3.9%	-9.2%
CCC(C(=O)c1ccccc1)P(=O)(NN)c1ccccc1 (centres undefined)	-3.5%	-23.0%
O=C1CN(C(=O)Cc2ccc(F)cc2)C(c2ccccc2)c2cc(Br)ccc2N1 (centres undefined)	-8.1%	-1.5%
Cc1ccc(NC(=S)N2CCN(c3ncccn3)CC2)cc1C	-18.4%	-26.4%
O=C(CN1C(=O)NC2(CCCC2)C1=O)Nc1ccccc1C(F)(F)F	-5.9%	i
COc1ccc(NC(=O)c2ccc(NC(=O)c3nc4nc(C)cc(C)n4n3)cc2)cc1	-11.7%	-19.1%
CCc1ccc[n+](-c2[nH]c(=O)sc2/C=N/N=C(\N)[O-])c1	-11.2%	-11.2%
Cc1cccc(NC(=O)Nc2ccc(S(N)(=O)=O)cc2)c1	6.5%	-16.3%
CCC1Oc2ccccc2N(CC(=O)NCCN2CCCC2)C1=O (centres undefined)	-12.3%	-8.3%
O=C(NCc1cccc(C(F)(F)F)c1)c1cc(-c2ccccc2)nn1CC1CC(c2cccnc2)=NO1 (centres undefined)	?	-3.5%

# More results
SMILES	Vaccinia Venus	VACV mCherry inh
O=C(Oc1oc(-c2ccco2)nc1C=Nc1ccccc1)c1ccco1	-10.0%	.
CCCCOc1ccc(C2=NNC(=O)CC2)cc1	-7.9%	i
CC12CCC3c4ccc(OCc5ccccc5)cc4CCC3C1CC(O)C2O (centres undefined)	-8.7%	-13.8%
CC(O)c1nc2ccccc2[nH]1 (centres undefined)	-17.6%	i
